GIRK2 act – opens human GIRK2 potassium channels | HEK293-GIRK2 thallium flux, Thallos fluorescence | actives 0.05% (n = 63,000) | calls only for hits at 25 µM | AID 1259325 | P48051;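 active = among the strongest 0.2% of first-round signals and kept after retests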;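 also: first round at about 10 µM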
Target sequence (P48051 whole entry, looked up): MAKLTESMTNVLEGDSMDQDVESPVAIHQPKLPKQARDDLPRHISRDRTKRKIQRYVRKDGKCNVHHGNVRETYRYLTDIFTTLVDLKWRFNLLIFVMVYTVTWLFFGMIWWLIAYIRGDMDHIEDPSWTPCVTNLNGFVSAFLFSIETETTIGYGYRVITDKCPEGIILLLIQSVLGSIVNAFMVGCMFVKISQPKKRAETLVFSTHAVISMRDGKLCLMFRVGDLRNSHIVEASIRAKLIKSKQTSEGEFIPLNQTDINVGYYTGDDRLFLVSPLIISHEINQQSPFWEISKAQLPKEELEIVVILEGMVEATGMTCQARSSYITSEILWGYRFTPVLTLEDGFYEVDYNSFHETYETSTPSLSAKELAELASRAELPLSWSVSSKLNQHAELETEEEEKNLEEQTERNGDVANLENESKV
Calls only. This is a subset; the hit share may differ from the screen's.

How did CC(=O)c1ccc(NC(=O)Cn2cccc(-c3nc(-c4ccc(C)cc4)no3)c2=O)cc1 do in these assays?
GIRK2 act: inactive

Results for CCNC(=O)C(=O)NCCCN1CCN(c2ccccc2)CC1 ?
GIRK2 act: inactive

What do the screens show for `CCN(CC)S(=O)(=O)c1ccc(-c2nc(C#N)c(N3CCC(C(N)=O)CC3)o2)cc1`?
GIRK2 act: inactive

What do the screens show for `COc1ccc(OC)c(-c2cc(C(=O)N3CCN(c4ccccn4)CC3)[nH]n2)c1`?
GIRK2 act: inactive

What do the screens show for `COCCc1nnc(NC(=O)C2CC2)o1`?
GIRK2 act: inactive

Results for CCOc1ccc(-n2c(C)c(C)n3c4c(=O)n(CCN5CCOCC5)c(=O)n(C)c4nc23)cc1 ?
GIRK2 act: inactive

What do the screens show for `CS(=O)(=O)c1ccc(C2=C(c3ccccc3)C(=O)OC2)cc1`?
GIRK2 act: inactive

How did Cc1ccc(C)c(CN2CC(c3nc(-c4cccnc4)no3)C2)c1 do in these assays?
GIRK2 act: inactive

Results for O=C(Cn1nc2ccc(SC3CCCCC3)nn2c1=O)Nc1ccc2c(c1)OCO2 ?
GIRK2 act: inactive

Results for CC(=Nc1ccc(S(N)(=O)=O)cc1)c1c(O)[nH]c2ccccc12 ?
GIRK2 act: inactive

Results for O=C(CSC1CCCC1)NCC1CCN(C(=O)c2cccnc2)CC1 ?
GIRK2 act: inactive

What do the screens show for `Cc1nc(NCCNC(=O)c2cccc3ccccc23)cc(Nc2ccccn2)n1`?
GIRK2 act: inactive

Results for COc1ccc(-c2cc(-c3cccs3)nc3sc(C(N)=O)c(N)c23)cc1 ?
GIRK2 act: inactive

How did O=C(NCC#CCN1CCOCC1)C12CC3CC(CC(C3)C1)C2 do in these assays?
GIRK2 act: inactive

Results for Cc1ccc(C(O)=C2C(=O)C(=O)N(c3nc(C)c(C)s3)C2c2ccco2)cc1 (centres undefined) ?
GIRK2 act: inactive

A draw from above in order of SMILES length, ascending:
Results for CCNC(=O)C(=O)NCCCN1CCN(c2ccccc2)CC1 ?
GIRK2 act: inactive

What do the screens show for `Cc1nc(NCCNC(=O)c2cccc3ccccc23)cc(Nc2ccccn2)n1`?
GIRK2 act: inactive

Results for O=C(Cn1nc2ccc(SC3CCCCC3)nn2c1=O)Nc1ccc2c(c1)OCO2 ?
GIRK2 act: inactive

The main list resumes with the five entries that preceded the break.
Results for O=C(CSC1CCCC1)NCC1CCN(C(=O)c2cccnc2)CC1 ?
GIRK2 act: inactive

What do the screens show for `Cc1nc(NCCNC(=O)c2cccc3ccccc23)cc(Nc2ccccn2)n1`?
GIRK2 act: inactive

Results for COc1ccc(-c2cc(-c3cccs3)nc3sc(C(N)=O)c(N)c23)cc1 ?
GIRK2 act: inactive

How did O=C(NCC#CCN1CCOCC1)C12CC3CC(CC(C3)C1)C2 do in these assays?
GIRK2 act: inactive

Results for Cc1ccc(C(O)=C2C(=O)C(=O)N(c3nc(C)c(C)s3)C2c2ccco2)cc1 (centres undefined) ?
GIRK2 act: inactive

How did COC(=O)c1ccc(C(=O)NCC2CCN(S(=O)(=O)c3cccnc3)CC2)cc1 do in these assays?
GIRK2 act: inactive

What do the screens show for `CCOCCn1c(=O)c2c(nc3n2CCCN3c2ccc(OC)cc2)n(C)c1=O`?
GIRK2 act: inactive

What do the screens show for `Cc1ccsc1C(O)CNC(=O)NCCCc1ccccc1` (centres undefined)?
GIRK2 act: inactive

Results for O=C(Oc1cccnc1)c1cc2ccccc2oc1=O ?
GIRK2 act: inactive

Results for COC(=O)c1ccc2c(=O)n(-c3ccccc3)c(N3CCSCC3)nc2c1 ?
GIRK2 act: inactive

How did CCOc1ccccc1Oc1cnc(N)nc1-c1ccc(OCc2ccccc2F)cc1O do in these assays?
GIRK2 act: inactive

Results for CC(O)Cn1c(N2CCCC2)nc2c1c(=O)[nH]c(=O)n2C (centres undefined) ?
GIRK2 act: inactive

What do the screens show for `CC(C)c1nnc(NC(=O)c2ccc3ccccc3n2)s1`?
GIRK2 act: inactive

Results for O=C(NCc1cccs1)c1ccc(-n2cccn2)nn1 ?
GIRK2 act: inactive

What do the screens show for `O=C(NCCCN1CCN(c2ccccc2)CC1)NCCOc1ccccc1`?
GIRK2 act: inactive

How did N#Cc1nc(-c2ccccc2Cl)oc1N1CCN(C(=O)c2cccs2)CC1 do in these assays?
GIRK2 act: inactive

How did COc1cccc(CNC(=O)Cn2c(=O)nc(-c3ccccc3)c3cc(Cl)ccc32)c1 do in these assays?
GIRK2 act: inactive

What do the screens show for `CC(C)Oc1ccc(C(=O)N(Cc2ccsc2)Cc2ccco2)cc1`?
GIRK2 act: inactive

What do the screens show for `COc1ccc(NC(=O)C(=O)NCCCN2CCN(c3ccccc3)CC2)cc1Cl`?
GIRK2 act: inactive

How did O=C(Nc1cnc(N2CCOCC2)nc1)Nc1ccc2c(c1)OCO2 do in these assays?
GIRK2 act: inactive

How did O=C1CCSCC(C(=O)NCc2ccccc2)N1 (centres undefined) do in these assays?
GIRK2 act: inactive

Results for Cn1nc(C(=O)NCCc2csc3nc(-c4ccccc4F)nn23)ccc1=O ?
GIRK2 act: inactive

How did O=c1c(S(=O)(=O)N2CCCC2)cccn1Cc1nc(-c2ccccn2)no1 do in these assays?
GIRK2 act: inactive

Results for O=C(CSc1ncnc2sc3c(c12)CCCCC3)N1CCOCC1 ?
GIRK2 act: inactive

Results for N#Cc1ccc(COCC2CCN(C(=O)C34CC5CC(CC(C5)C3)C4)CC2)cc1 ?
GIRK2 act: inactive

Results for C=CCOc1ccccc1CN1C(=O)C(O)(CC(C)=O)c2cccc(Cl)c21 (centres undefined) ?
GIRK2 act: inactive

Results for COc1ccc(C(=O)Nc2cccc(-n3c(C)nc4ccccc4c3=O)c2)cc1OC ?
GIRK2 act: inactive

What do the screens show for `O=C(NC1CCN(C(=O)c2cn(-c3ccc(Cl)cc3)nn2)CC1)c1ccncc1`?
GIRK2 act: inactive

How did CC(C)(CO)NC(=O)C1(c2ccc(F)cc2)CC1 do in these assays?
GIRK2 act: inactive

Results for Cc1cccc(C)c1NC(=O)/C(C#N)=C1\SC(Cc2ccccc2Cl)C(=O)N1c1ccccc1 (centres undefined) ?
GIRK2 act: inactive

Results for Cc1nn(C)c(C)c1CNc1ncc2c(=O)n(Cc3ccccc3)c(=O)[nH]c2n1 ?
GIRK2 act: inactive

Results for O=C(NCC(O)c1ccc2c(c1)CCO2)C(=O)Nc1cccc(N2CCCCC2=O)c1 (centres undefined) ?
GIRK2 act: inactive

Results for COc1ccc(F)cc1S(=O)(=O)N1CCN(c2nc3c(C(F)(F)F)cccc3s2)CC1 ?
GIRK2 act: inactive

Results for O=C(Nc1nnc(-c2ccsc2)o1)c1ccc(=O)[nH]n1 ?
GIRK2 act: inactive

How did CCc1ccc(S(=O)(=O)Nc2ccc3c(c2)CCC(=O)N3Cc2ccccc2)cc1 do in these assays?
GIRK2 act: inactive

Results for CSCCC(C)(O)CNC(=O)Nc1ccc(Cl)c(Cl)c1 (centres undefined) ?
GIRK2 act: inactive

What do the screens show for `O=C(Cn1cc(S(=O)(=O)N2CCCC2)ccc1=O)Nc1cccc(Br)c1`?
GIRK2 act: inactive

Results for COc1ccc(-c2c(C)oc3cc(OC(=O)c4ccccc4)ccc3c2=O)cc1OC ?
GIRK2 act: inactive

How did O=C(CSc1nnc(-c2ccncc2)o1)Nc1ccccc1Cl do in these assays?
GIRK2 act: inactive

What do the screens show for `O=C(NCc1cccs1)Nc1nnc(-c2ccc(Cl)cc2)o1`?
GIRK2 act: inactive

Results for O=C(c1ccc2nsnc2c1)N1CCN(c2ncccn2)CC1 ?
GIRK2 act: inactive

Results for CN(c1ccsc1C(=O)N1CCSCC1)S(=O)(=O)c1ccc(C(C)(C)C)cc1 ?
GIRK2 act: inactive

Results for COc1ccccc1CNC(=O)C1=Cc2cc(Br)ccc2OC=C1 ?
GIRK2 act: inactive

What do the screens show for `CC(C)c1nccn1CC1CCN(C(=O)CSC2CCCC2)CC1`?
GIRK2 act: inactive

Results for CCOC(=O)c1c(NCCc2ccccc2)c2cccc(C)c2[nH]c1=O ?
GIRK2 act: inactive

How did Cc1ccc(-c2cc3c4nn(CC(=O)Nc5c(C)cccc5C)c(=O)n4ccn3n2)cc1C do in these assays?
GIRK2 act: inactive

What do the screens show for `Cn1c(=O)c2c(ncn2CC(=O)N2CCC(Oc3ncccc3Cl)CC2)n(C)c1=O`?
GIRK2 act: inactive

What do the screens show for `COc1cc(NC(=O)Cn2cnc3c(sc4cccc(F)c43)c2=O)cc(OC)c1OC`?
GIRK2 act: inactive

How did CCC(C(=O)N1CCC(Oc2ncccc2Cl)CC1)c1ccccc1 (centres undefined) do in these assays?
GIRK2 act: inactive

How did CS(=O)(=O)c1ccc(CC(=O)N2CC(Oc3nc4c(F)cccc4s3)C2)cc1 do in these assays?
GIRK2 act: inactive

Results for O=C(Nc1nc(-c2ccccc2)cs1)c1ccc(N2C(=O)c3ccccc3C2=O)cc1 ?
GIRK2 act: inactive

How did CC1CN(CC(O)COCC2CC3CCC2C3)CC(C)O1 (centres undefined) do in these assays?
GIRK2 act: inactive

Results for COc1ccc(Br)c(C(=O)NCC2CCN(C(=O)c3ccncc3)CC2)c1 ?
GIRK2 act: inactive

How did CCOc1ccc2ccccc2c1C(=O)N1CC(c2nc3ccccc3[nH]2)C1 do in these assays?
GIRK2 act: inactive

What do the screens show for `COc1cccc2cc(C(=O)N3CCC(C(=O)NCc4nc(C)no4)CC3)oc12`?
GIRK2 act: inactive

Results for COCCN(Cc1ccsc1)S(=O)(=O)c1cccc(Cl)c1C ?
GIRK2 act: inactive

Results for COc1ccccc1NC(=O)c1cccc2nc3ccccc3nc12 ?
GIRK2 act: inactive

What do the screens show for `CC(C)C(=O)Nc1ccc(S(=O)(=O)N(CCc2cccs2)Cc2cccnc2)cc1`?
GIRK2 act: inactive

Results for CCCCOc1cccc2c1CCN(Cc1ccccc1)C2=O ?
GIRK2 act: inactive

How did Cc1c(Cl)cccc1NC(=O)Cn1nc2c3cc(F)ccc3ncn2c1=O do in these assays?
GIRK2 act: inactive

How did CCOc1ccc2nc(N(CCCn3ccnc3)C(=O)/C=C/c3cccs3)sc2c1 do in these assays?
GIRK2 act: inactive

How did CCOc1ccccc1NC(=O)Cn1c(=O)c(CNc2ccccc2)cc2cc3c(cc21)OCCO3 do in these assays?
GIRK2 act: inactive

How did CCOC(=O)c1c(NC(=O)CSc2n[nH]c(N)n2)sc(C)c1C do in these assays?
GIRK2 act: inactive

How did CCCCCn1c(NCCCOCC)nc2c1c(=O)[nH]c(=O)n2C do in these assays?
GIRK2 act: inactive

What do the screens show for `CCC(C(=O)NCc1ccc(C)cc1)n1cccc(-c2nc(C3CC3)no2)c1=O` (centres undefined)?
GIRK2 act: inactive

Retrieved one by one from above, 4 records:
How did CC1CN(CC(O)COCC2CC3CCC2C3)CC(C)O1 (centres undefined) do in these assays?
GIRK2 act: inactive

What do the screens show for `COc1cccc2cc(C(=O)N3CCC(C(=O)NCc4nc(C)no4)CC3)oc12`?
GIRK2 act: inactive

How did CCOC(=O)c1c(NC(=O)CSc2n[nH]c(N)n2)sc(C)c1C do in these assays?
GIRK2 act: inactive

Results for COc1ccc(Br)c(C(=O)NCC2CCN(C(=O)c3ccncc3)CC2)c1 ?
GIRK2 act: inactive

Continued:
How did O=C(Cn1c(/C=C/c2ccccc2)nc2ccccc21)NC1CC1 do in these assays?
GIRK2 act: inactive

What do the screens show for `COC1CCN(C(=O)c2cc(Cl)cc(Cl)c2)CC1`?
GIRK2 act: inactive

Results for CS(=O)(=O)c1ccc(CC(=O)Nc2nc(-c3cc4ccccc4o3)cs2)cc1 ?
GIRK2 act: inactive

How did COc1ccc(NC(=O)CSc2cc(C)nc(-c3ccc(C(F)(F)F)cc3)n2)cc1OC do in these assays?
GIRK2 act: inactive

How did Cc1ccc(N2C(=O)C3N=NN(CC(=O)Nc4ccccc4[N+](=O)[O-])C3C2=O)cc1 (centres undefined) do in these assays?
GIRK2 act: inactive

How did Cc1cc(NC(=O)c2ccc(C#N)cc2)n(-c2nc3ccccc3s2)n1 do in these assays?
GIRK2 act: inactive

How did CCCN1CCCc2cc(CCNC(=O)C(=O)Nc3ccccc3C)ccc21 do in these assays?
GIRK2 act: inactive

Results for O=C(CCS(=O)(=O)c1ccccc1)N1CC(c2nc3ccccc3[nH]2)C1 ?
GIRK2 act: inactive

What do the screens show for `O=S(=O)(c1ccc2c(c1)CCCC2)N1CC(c2nc3ccccc3[nH]2)C1`?
GIRK2 act: inactive

Results for CC(=O)NCC#CCOc1ccc2c(c1)OCO2 ?
GIRK2 act: inactive

How did COc1ccc(-n2c3c(c(=S)[nH]c2=O)CCC3)cc1 do in these assays?
GIRK2 act: inactive

How did Cc1ccc2c(c1)N(C(=O)Cn1cccc(S(=O)(=O)N3CCCC3)c1=O)CCO2 do in these assays?
GIRK2 act: inactive

How did O=C(CSc1nc2ccccc2s1)N1CCn2c1nc1ccccc12 do in these assays?
GIRK2 act: inactive

Results for O=C(CC1Sc2ccc(C(F)(F)F)cc2NC1=O)Nc1ccc(F)c(Cl)c1 (centres undefined) ?
GIRK2 act: inactive

Results for O=C(COc1ccccc1F)Nc1cc(OCc2ccc3c(c2)OCO3)ncn1 ?
GIRK2 act: inactive

What do the screens show for `Cc1cnc(-n2nnc(C(=O)N3CCn4c3nc3ccccc34)c2C)s1`?
GIRK2 act: inactive

How did COc1cccc(C(=O)N(CCN(C)C)c2nc3ccc(S(C)(=O)=O)cc3s2)c1 do in these assays?
GIRK2 act: inactive

How did COc1ccc(-c2cc(-c3nc(-c4ccc(C)cc4)no3)[nH]n2)c(OC)c1 do in these assays?
GIRK2 act: inactive

What do the screens show for `O=C(CSc1nc2ccccc2s1)N1CCN(CCn2cccn2)CC1`?
GIRK2 act: inactive

What do the screens show for `O=C(Nc1nccs1)C1CCN(C(=O)/C=C/c2ccc3c(c2)OCO3)CC1`?
GIRK2 act: inactive

How did COc1ccc(-c2ccc(C)c(NC(=O)c3cc4ccccc4oc3=O)c2)nn1 do in these assays?
GIRK2 act: inactive

How did CC1CCCN(C(=O)CCC2NC(=O)c3ccccc3NC2=O)C1 (centres undefined) do in these assays?
GIRK2 act: inactive

How did CCOc1cc(C)ccc1S(=O)(=O)N1CCN(C)CC1 do in these assays?
GIRK2 act: inactive

How did O=C(NCCCc1ccccc1)NCCC(O)C1CC1 (centres undefined) do in these assays?
GIRK2 act: inactive

How did CONC(=O)Cc1csc(Nc2cc(C)ccn2)n1 do in these assays?
GIRK2 act: inactive

High-throughput results from PubChem BioAssay.
